Bioassay records (PubChem BioAssay)
CSC inhib – cancer stem cell viability inhibitors, primary screen, luminescence; cancer stem cell-like cells viability; inhibition, % at 7.5 µM; 1.1% of 300,000 active; AID 2717, 2010;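 active = mean at 75% or more and at least half the replicates too; tested in HMLE shEcad cells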;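 also: 0% = median of negative and 100% = median of positive control wells; the first replicate is given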
MT1-MMP act inh – blockers of MT1-MMP proenzyme processing, primary screen, HT1080 RFP-PRO-GFP cells, GFP/RFP fluorescence. GFP/RFP ratio fluorescence, overnight; percent of plate control window, DMSO zero. GFP/RFP ratio change, % at 20 µM. 0.061% of 360,000 active. AID 651647, 2012;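 active = GFP/RFP ratio change of at least 30% with cell ATP level not reduced by more than half and red fluorescence within 50% of control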; also: strong numbers were not always called active
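Assay system: RFP-PRO-GFP reporter HT1080 cells; read-out basis: GFP/RFP fluorescence ratio; benchmarks: DMSO wells and RFP-L50D-GFP cells; doses: 20 µM single dose, 1% DMSO; schedule: overnight cell settling, then overnight compound exposure, 37 °C, 5% CO2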
HIV Env fusion – inhibitors of HIV-1 Env-driven cell-cell fusion, primary screen, HeLa-JRFL effector, CEM21 target cells, luciferase; inhibition, % at 12.3 µM; 1.1% of 360,000 active;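 active = mean replicate inhibition score of at least 50 and every replicate individually at or above 50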;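 also: 0% = plate neutral controls and 100% = maraviroc near 300 nM; one replicate is shown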
eIF4H inh – human eIF4H binding inhibitors, primary screen, translation initiation inhibitor project, biochemical, uHTS, fluorescence polarization; eIF4H fluorescence polarization binding assay; 0.94% of 290,000 active; AID 2012, 2009; inhibition, % at 35 µM;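 active = 50% or more with normal probe brightness, or confirmed in later tests; about a fifth of its hits are not listed in these tables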;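 also: calls also rest on retests at 20 µM and on dose response follow-up; 0% = protein and probe with vehicle and 100% = probe without protein; strong numbers were not always called active; many hits fall short of the cut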
Yeast UUG start – modulators of yeast start codon fidelity, primary screen, whole organism, S. cerevisiae, single point, plate reader; S. cerevisiae UUG-firefly luciferase reporter, luminescence/redox ratio; 0.13% of 350,000 active; activity score, % at 18.7 µM;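 active = replicate mean at a twofold rise or more, about +100% in these data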;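 also: firefly luciferase made from a UUG start codon reports start codon fidelity; reporter light over untreated wells divided by growth signal over untreated wells; some hits fall short of that in this replicate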
PABP polyA inh – PABP poly(A) RNA binding inhibitors, primary screen, biochemical, fluorescence polarization, uHTS | AID 2014, 2009 | inhibition, % at 35 µM | 1% of 290,000 active;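 active = 50% or more with normal probe brightness, or confirmed in later tests; about a fifth of its hits are not listed in these tables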;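 also: calls also rest on retests at 20 µM and on dose response follow-up; controls were probe without protein and protein plus probe with vehicle; some compounds called inactive have numbers as strong as hits; many hits fall short of the cut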
Rce1 inhib – yeast Rce1p protease inhibitors, primary screen, biochemical, fluorescence, cell-free homogeneous. yeast membranes, quenched prenylated peptide cleavage fluorescence. CAAX prenyl protease 2 (Saccharomyces cerevisiae (strain ATCC 204508 / S288c)), Q03530. AID 2563, 2010. 0.27% of 290,000 active. calls only;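 active = fall in fluorescence gain of 50% or more versus controls, with final raw signal at or below 3038400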;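 also: plate controls were neutral control wells for no effect and wells lacking membranes for full effect; tested at 10 µM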
Target sequence (Q03530 whole entry, looked up): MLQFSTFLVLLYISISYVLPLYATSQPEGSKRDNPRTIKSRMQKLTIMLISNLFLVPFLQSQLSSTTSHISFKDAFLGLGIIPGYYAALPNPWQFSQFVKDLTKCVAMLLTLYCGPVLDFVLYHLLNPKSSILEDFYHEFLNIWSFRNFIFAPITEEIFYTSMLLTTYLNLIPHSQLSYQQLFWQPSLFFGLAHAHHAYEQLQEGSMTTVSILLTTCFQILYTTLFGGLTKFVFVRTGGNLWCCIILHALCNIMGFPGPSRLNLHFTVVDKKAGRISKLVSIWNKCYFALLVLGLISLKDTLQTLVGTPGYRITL
MT1-MMP act inh RFP – second read-out of MT1-MMP act inh, no call of its own (marks repeat the call); RFP signal change, %; measured here: RFP expression control read;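 0 = vehicle wells; hits needed this value within 50% of zero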
Numbers without * were called inactive; i = inactive; . = no result given; & = joins results of further samples; [ ] = remark or other dose.

SMILES	CSC inhib	MT1-MMP act inh	MT1-MMP act inh RFP	HIV Env fusion	eIF4H inh	Yeast UUG start	PABP polyA inh	Rce1 inhib
CCOC(=O)C1CCCN(C(=O)c2cc(-c3cccs3)oc2C)CC1 (stereo not given)	.	-2	2	30	.	2	.	.
CC(C)OC(=O)C(C(=O)C(F)(F)F)c1cc(NS(=O)(=O)c2ccc3ccccc3c2)c2ccccc2c1O (stereo not given)	22	-44	4	.	2	-4	-8	i
COC(=O)c1nnn(-c2nonc2N)c1CSc1nc2ccccc2o1	-19	4	1	33	-3	.	4	.
CCN(C(=O)COC(=O)/C(C#N)=C/c1ccc(OC)cc1)C1CCS(=O)(=O)C1 (stereo not given)	-10	4	7	-7	.	-11	.	i
O=C(C[C@@H]1C/C=C\CCC(=O)OC[C@@H]2CCCN2C1=O)N[C@@H](CO)Cc1ccccc1	-21	-2	5	-6	.	-10	.	.
CCOC(=O)COc1c(Br)cc(C2NC(=O)NC(C)=C2C(C)=O)cc1OC (stereo not given)	-8	-2	3	-74	12	-23	2	i
Cc1cccc(OCC(=O)N(C)CCc2ccccn2)c1	-6	2	4	.	3	-7	18	i
CCOc1ccc2nc(NC(=O)c3ccc(OCC4CCCO4)cc3)sc2c1 (stereo not given)	-2	-4	-27	10	-15	-15	-7	i
O=C(CSc1ccccc1)NC1CCCCCC1	4	-5	-2	-17	-5	-9	-4	i
CCC(=O)NC(Nc1ncc(C)s1)(C(=O)OC)C(F)(F)F (stereo not given)	-3	-3	-7	-8	6	-9	-9	i
NCCCn1c(C(=O)c2cc(Cl)c(N)c(Cl)c2)c2ccc([N+](=O)[O-])cc2[n+]1[O-]	51	-32	-16	-47	.	-4	.	i
c1ccc(COCCC2CO2)cc1 (stereo not given)	-5	.	.	.	9	.	4	i
COc1ccc(CNC(N)=O)cc1OC	-7	0	1	.	-2	-26	-5	i
CN(c1cccc(NC(=O)c2ccc(Cl)c(S(=O)(=O)Nc3ccccc3)c2)c1)S(C)(=O)=O	-2	-2	-11	-32	-6	-16	2	i
COc1ccc(CNC(=O)c2csc(Cc3ccc(Cl)cc3)n2)cc1	-1	-3	0	.	11	.	12	i
CCOC(=O)N1CCN(c2c(-c3ccccc3)c3cc(Cl)ccc3[nH]c2=O)CC1	-8	2	4	-31	-7	-2	-8	i
Cc1oc(-c2ccccc2F)nc1CS(=O)(=O)CC(=O)N1CCN(c2ccccc2)CC1	-8	4	-11	60*	-3	3	9	i
Cc1ccc(-c2noc(-c3ccccc3Br)n2)cc1	11	0	3	.	6	-8	16	i
O=C(NCc1ccccc1Br)c1ccc2c(c1)OCCO2	.	-2	0	-5	-8	5	0	i
Cc1nc(N2CCN(C(=O)c3ccco3)CC2)nc2c1C(=O)CC(C)C2 (stereo not given)	-1	3	0	-9	-1	-13	2	i
CN=c1sc2ccccc2n1CC(O)COc1ccccc1 (stereo not given)	.	1	5	.	-2	-2	5	i
CCc1ccc(-c2csc(NC(=O)C3CC(=O)N(c4ccc5c(c4)OCCO5)C3)n2)cc1 (stereo not given)	58	-8	-23	.	24	-9	-6	i
CSCCC1NC(=O)NC1=O (stereo not given)	13	.	.	.	-4	.	4	i
CC12CCC(C(=O)N/N=C/c3ccc(O)cc3O)(OC1=O)C2(C)C (stereo not given)	.	-4	-3	-3	18	.	-3	i
Cc1ccc(CN2[C@@H](CC3CCCCC3)COCCS2(=O)=O)cc1	4	0	-3	25	-6	-13	-11	i

New compounds follow.
SMILES	CSC inhib	MT1-MMP act inh	MT1-MMP act inh RFP	HIV Env fusion	eIF4H inh	Yeast UUG start	PABP polyA inh	Rce1 inhib
CCOc1ccccc1/C=C(/NC(=O)c1ccccc1)C(=O)NCC(=O)O	7	-2	4	-2	-15	.	-15	i
CSCCNC(C)=O	6	.	.	.	-1	.	-3	i
Cc1ccc(-c2nnc(Nc3ccc(CC(N)=O)cc3)c3ccccc23)cc1S(=O)(=O)NCC1CCCO1 (stereo not given)	-12	3	7	4	6	.	11	i
COc1cc2c(cc1OC)CN(CC(=O)Nc1ccc(S(=O)(=O)N3CCCC3)cc1)CC2	1	0	-6	-9	-12	4	13	i
COc1cccc2cc(C(=O)Nc3ccc(S(=O)(=O)NCC4CCCO4)cc3)c(=O)oc12 (stereo not given)	12	-2	-4	13	-2	0	-16	i
COC(=O)c1nc(NC(=O)C(C)(C)C)n[nH]1	.	2	4	-25	-12	-18	-3	i
COc1cccc(NC(=O)c2sc3nc(N4CCOCC4)c4c(c3c2N)CCCC4)c1	-10	-3	-6	-29	-16	-14	5	i
CCCCOC(=O)c1ccc(NC(=O)C(=O)CC(=O)c2ccc(OC)cc2)cc1	16	-3	-1	16	20	.	-2	i
COc1ccc(Cl)cc1NC(=O)C(C)NC(c1ccccc1)c1ccccc1 (stereo not given)	21	-14	-17	59*	4	-10	0	i
COc1ccc(N(CC(=O)NCc2cccs2)S(=O)(=O)c2ccc(F)cc2)cc1	.	-2	1	13	.	-12	.	.
CN(C)S(=O)(=O)c1ccc(Cl)c(NC(=O)COC(=O)c2ccc3c(c2)NC(=O)CS3)c1	-10	-3	-4	7	0	-12	-6	i
CCCC(=O)Nc1nnc(CC(=O)OCC)s1	-1	-4	-3	.	-2	-13	0	i
C#CCOCCOCCOCCNc1nc(N2CCN(C(=O)[C@H](CCCCN)n3cc([C@@H](N)C(C)CC)nn3)CC2)nc(N2CCN(C(=O)[C@H](CCCCN)n3cc([C@@H](N)CO)nn3)CC2)n1 (stereo not given in full)	4	.	.	.	48	.	37	i
CCn1cnc2cc(NC(=O)c3ccc(C)cc3)ccc21	-5	1	2	-43	6	-14	6	.
O=C(Nc1nnc(-c2ccc(F)cc2)s1)C1CCN(S(=O)(=O)c2ccc(Cl)cc2)CC1	-6	5	6	-86	5	.	-2	i
CCN(CC)C(=S)Oc1c(Cl)cccc1Cl	-6	3	3	15	-2	.	-2	i
Cc1cc(C)c(S(=O)(=O)n2c([N+](=O)[O-])cnc2C)c(C)c1	.	0	1	-5	-2	.	-26	i
Cc1ccccc1OCC(=O)NC(Cc1c[nH]c2ccccc12)C(=O)O (stereo not given)	-8	-1	2	6	-10	.	5	i
Cc1c(C=O)c2ccccn2c1C(=O)c1cccc([N+](=O)[O-])c1	-8	5	0	-1	-7	.	-1	i
O=C(O)c1nc(-c2ccccc2)n(-c2cccc(C(F)(F)F)c2)n1	-7	2	8	-4	3	-23	7	i
N#Cc1nc(-c2ccc(OCc3ccc(Cl)cc3)cc2)oc1NCc1cccnc1	19	-3	-7	.	-11	-16	-10	i
Cc1nc(-c2ccccn2)nc(SCC(=O)c2ccccc2)c1Cl	-10	6	-2	-3	-1	-27	8	i
Cc1ccc(/C=C/C(=O)O)cc1S(=O)(=O)Nc1ccccc1C(=O)O	-9	-1	1	1	4	.	-4	i
CN(C)CCOC(=O)c1ccc(COc2ccccc2Br)o1	.	3	2	-32	1	-1	7	i
C#CCNC(=O)C1=C[C@H](c2coc3ccccc3c2=O)C[C@H](OCCCCO)O1	-11	-3	4	2[16.7 µM]	-5	13&1	2	i

(list continues)
SMILES	CSC inhib	MT1-MMP act inh	MT1-MMP act inh RFP	HIV Env fusion	eIF4H inh	Yeast UUG start	PABP polyA inh	Rce1 inhib
CNC(=O)C1CCN(S(=O)(=O)c2c(C)noc2/C=C/c2cccc(OC)c2)CC1	.	2	1	-3	-2	-13	2	i
C=C1CC[C@H](O)C/C1=C/C=C1\CCC[C@]2(C)[C@@H]([C@H](C)/C=C/[C@H](C)C(C)C)CC[C@@H]12	20	-6	-2	4	.	17	.	.
OC(c1ccc(Cl)cc1)C(CN1CCOCC1)c1ccccc1 (stereo not given)	-6	5	3	13	-7	-7	6	i
O=C(COc1ccc(S(=O)(=O)N2CCOCC2)cc1)N1CCN(c2ccccc2)CC1	6	6	-8	-2	-3	-2	-10	i
CN(Cc1cc2ccccc2[nH]c1=O)S(=O)(=O)c1ccccc1	-4	2	0	.	-1	-2	-1	i
O=C(c1ccc(S(=O)(=O)NCC2CCCO2)cc1)N1CCN(c2ccccc2F)CC1 (stereo not given)	-12	2	-2	2	1	.	-4	i
O=C(CN(C(=O)c1csnn1)c1ccccc1)NCCc1ccccc1	.	1	4	2	-10	-16	7	i
COc1cccc(CC(=O)Nc2ccc3c(c2)c(=O)n(C)n3-c2ccc(C(C)(C)C)cc2)c1	.	-2	-7	45	.	-11	.	.
CCCc1nc2nc(C)c(NS(=O)(=O)c3ccc(F)cc3)c(=O)n2[nH]1	-8	-3	1	-44	2	-13	12	i
CC(C)N(C(=O)Cn1cc(S(=O)(=O)CC(=O)NCc2ccc(F)cc2)c2ccccc21)C(C)C	3	-4	-4	4	-12	11	0	i
O=C(CCN1CCN(CC(=O)Nc2ccccc2Cl)CC1)Nc1ccccc1F	0	3	6	.	-2	-4	-19	i

14 of these compounds in a different format:
Structure,CSC inhib,MT1-MMP act inh,MT1-MMP act inh RFP,HIV Env fusion,eIF4H inh,Yeast UUG start,PABP polyA inh,Rce1 inhib
Cc1ccc(/C=C/C(=O)O)cc1S(=O)(=O)Nc1ccccc1C(=O)O,-9,-1,1,1,4,.,-4,i
CN(C)CCOC(=O)c1ccc(COc2ccccc2Br)o1,.,3,2,-32,1,-1,7,i
C#CCNC(=O)C1=C[C@H](c2coc3ccccc3c2=O)C[C@H](OCCCCO)O1,-11,-3,4,2[16.7 µM],-5,13&1,2,i
CNC(=O)C1CCN(S(=O)(=O)c2c(C)noc2/C=C/c2cccc(OC)c2)CC1,.,2,1,-3,-2,-13,2,i
C=C1CC[C@H](O)C/C1=C/C=C1\CCC[C@]2(C)[C@@H]([C@H](C)/C=C/[C@H](C)C(C)C)CC[C@@H]12,20,-6,-2,4,.,17,.,.
OC(c1ccc(Cl)cc1)C(CN1CCOCC1)c1ccccc1 (stereo not given),-6,5,3,13,-7,-7,6,i
O=C(COc1ccc(S(=O)(=O)N2CCOCC2)cc1)N1CCN(c2ccccc2)CC1,6,6,-8,-2,-3,-2,-10,i
CN(Cc1cc2ccccc2[nH]c1=O)S(=O)(=O)c1ccccc1,-4,2,0,.,-1,-2,-1,i
O=C(c1ccc(S(=O)(=O)NCC2CCCO2)cc1)N1CCN(c2ccccc2F)CC1 (stereo not given),-12,2,-2,2,1,.,-4,i
O=C(CN(C(=O)c1csnn1)c1ccccc1)NCCc1ccccc1,.,1,4,2,-10,-16,7,i
COc1cccc(CC(=O)Nc2ccc3c(c2)c(=O)n(C)n3-c2ccc(C(C)(C)C)cc2)c1,.,-2,-7,45,.,-11,.,.
CCCc1nc2nc(C)c(NS(=O)(=O)c3ccc(F)cc3)c(=O)n2[nH]1,-8,-3,1,-44,2,-13,12,i
CC(C)N(C(=O)Cn1cc(S(=O)(=O)CC(=O)NCc2ccc(F)cc2)c2ccccc21)C(C)C,3,-4,-4,4,-12,11,0,i
O=C(CCN1CCN(CC(=O)Nc2ccccc2Cl)CC1)Nc1ccccc1F,0,3,6,.,-2,-4,-19,i
